GIRK2 activ: opens human GIRK2 potassium channels. HEK293-GIRK2 thallium flux, Thallos fluorescence. actives 0.05% (n = 63,000). calls only for hits at 25 µM;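 active means among the strongest 0.2% of first-round signals and kept after retests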;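 further: first round at about 10 µM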
Target sequence (P48051 whole entry, looked up): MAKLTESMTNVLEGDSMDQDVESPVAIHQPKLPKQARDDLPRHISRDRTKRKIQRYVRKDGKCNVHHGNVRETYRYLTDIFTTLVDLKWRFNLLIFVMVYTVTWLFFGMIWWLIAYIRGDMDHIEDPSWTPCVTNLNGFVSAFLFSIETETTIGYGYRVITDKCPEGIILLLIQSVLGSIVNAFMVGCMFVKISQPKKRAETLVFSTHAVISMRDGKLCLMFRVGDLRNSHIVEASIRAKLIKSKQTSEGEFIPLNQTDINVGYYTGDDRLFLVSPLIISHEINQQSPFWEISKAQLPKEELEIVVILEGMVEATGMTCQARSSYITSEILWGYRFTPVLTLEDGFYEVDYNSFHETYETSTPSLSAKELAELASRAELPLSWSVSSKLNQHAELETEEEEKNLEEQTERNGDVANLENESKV
Calls only; i = inactive. This is a subset. The share of hits here may be higher or lower than overall.

GIRK2 activ | structure
i | COc1ccc2ncnc(Nc3ccc(OCc4ccccc4)cc3)c2c1
i | COc1ccccc1OCCNC(=O)c1ccc(Nc2nn3c(=O)c4ccccc4nc3s2)cc1
i | O=C(Nc1nnc(-c2ccc3c(c2)CCCC3)o1)c1cnc2ccccc2n1
i | COc1cccc2sc(N3CC(OC(C)=O)C3)nc12
i | COc1ccc(CCNC(=O)Cn2c(=O)nc(-c3ccccc3)c3cc(Cl)ccc32)cc1OC
i | COc1ccc(NC(=O)CSc2nc3sc(C)cc3c(=O)n2C)c(OC)c1
i | CS(=O)(=O)c1ccc2c(c1)c(CC(=O)O)cn2Cc1ccc(Br)cc1
i | COc1ccc(-c2cncnc2-c2ccc(OCc3ccccc3F)cc2O)cc1OC
i | COc1ccc(-c2cc3ccc(OCC=C(C)C)cc3oc2=O)c(OC)c1
i | O=C(c1ccsc1)N1CCC(Oc2cnccn2)CC1
i | O=C(NCCc1ccc(Cl)cc1)c1nnn(-c2ccc(F)cc2)n1
i | COc1ccc(N2CCN(S(=O)(=O)c3cc(C(=O)Nc4ccc(Oc5ccccc5)cc4)ccc3F)CC2)cc1
i | O=C(Nc1nc2c(s1)CN(C(=O)c1cc(C3CC3)on1)CC2)c1ccco1
i | COc1ccc2sc(N(Cc3cccnc3)C(=O)CCCS(=O)(=O)Cc3ccccc3)nc2c1
i | O=C(NC(C(=O)N1CCN(C(=O)c2ccccc2F)CC1)S(=O)(=O)c1ccccc1)c1ccco1 (centres undefined)
i | Cc1cc(C)n(-c2nc(CCNC(=O)c3ccsc3)cs2)n1
i | Cc1cc(C)n(-c2cc(SCC(=O)NCc3cccc(C(F)(F)F)c3)ncn2)n1
i | COc1ccc(-c2nc(CCNC(=O)Cn3nc(-n4cccn4)ccc3=O)cs2)cc1OC
i | COc1ccc2cc(CNc3ccccc3)c(=O)n(CC(=O)Nc3ccc(OC)c(OC)c3)c2c1
i | COc1ccc2nc(N(CCN3CCOCC3)C(=O)c3ccc(C#N)cc3)sc2c1
i | COc1ccc(N2C(=O)/C(=C/c3cccnc3)SC2=S)c(OC)c1
i | O=S(=O)(c1ccccc1)C1CC2CCC(C1)N2S(=O)(=O)c1cnc[nH]1 (centres undefined)
i | Cc1ccnc(NC(=O)CC(C)n2nc(C)cc2C)c1 (centres undefined)
i | COc1ccc(CNC(=O)NCc2sc(-c3ccccc3Cl)nc2C)cc1OC
i | COc1ccc(OC)c(-c2cc(C(=O)NCc3sc(-c4cccs4)nc3C)[nH]n2)c1
i | CCOc1ccc(NC(=O)Cn2c(C)cc(C)c(C#N)c2=O)cc1
i | COc1ccc(NC(=O)Cn2ncn3nc(-c4ccccc4)cc3c2=O)cc1OC
i | COc1ccc(CNC(=O)C(=O)NCC2OCCCN2S(=O)(=O)c2c(C)cc(C)cc2C)cc1 (centres undefined)
i | Cn1c(=O)n(Cc2ccccc2Cl)c(=O)c2c1nc1n2CCCN1Cc1ccco1
i | COc1cccc(CNC(=O)C(=O)Nc2cccc(Cl)c2C)c1
i | COc1cccc2sc(OC3CN(S(C)(=O)=O)C3)nc12
i | COc1ccc(-c2cc3ccccc3oc2=O)cc1OC
i | CCc1ccc(Oc2cc(N3CCC(C(=O)N4CCN(c5ccccc5F)CC4)CC3)ncn2)cc1
i | COc1cccc(C(=O)N2CCC(CSc3nc(C)cs3)CC2)c1OC
i | Cc1nc(-c2ccccc2Cl)sc1CNC(=O)c1ccc(S(N)(=O)=O)cc1
i | CCN1CCN(c2oc(-c3ccc(COc4ccc(C)cc4)o3)nc2C#N)CC1
i | CC(C(=O)NCc1cccs1)n1cccc(-c2nc(-c3cnccn3)no2)c1=O (centres undefined)
i | Cc1nc2ccccn2c1C(=O)NCC1(c2ccccc2)CCOCC1
i | O=C(Cn1ccc2ccccc21)N1CCN(c2ccccc2Cl)CC1
i | CCOC(=O)CCC(=O)N1CCC(Oc2nc3c(C)ccc(C)c3s2)CC1
i | COCCN(Cc1ccoc1)C(=O)NCCOc1ccccc1
i | O=C(NCCc1ccsc1)C(=O)NCC(F)(F)F
i | CCCCOc1ccc(S(=O)(=O)N2CCCCCC2)cc1
i | O=C(C1CCCCC1)N(CCn1cccn1)c1nc2ccccc2s1
i | CCCCNC(=O)c1sccc1N(C)S(=O)(=O)c1ccc(C)c(Cl)c1

Filtered by structure: the compounds so far containing a cyano group
GIRK2 activ | structure
i | COc1ccc2nc(N(CCN3CCOCC3)C(=O)c3ccc(C#N)cc3)sc2c1
i | CCOc1ccc(NC(=O)Cn2c(C)cc(C)c(C#N)c2=O)cc1
i | CCN1CCN(c2oc(-c3ccc(COc4ccc(C)cc4)o3)nc2C#N)CC1

Remaining list, next part
GIRK2 activ | structure
i | O=C1CC(N2CCCCCC2)C(=O)N1c1ccc(Br)cc1 (centres undefined)
i | COc1cc(OC)c(NC(=O)Nc2cnc(N3CCOCC3)nc2)cc1Cl
i | COc1ccc(-c2csc3c(=O)n(Cc4ccc(Br)cc4)cnc23)cc1
i | O=C(C(c1ccccc1)c1ccccc1)N1CCC(CSc2ccccn2)CC1
i | CCCn1c(=O)c2cc(Cl)ccc2n2c(SCC(=O)Nc3cc(OC)cc(OC)c3)nnc12
i | O=C(c1csc(-c2cnccn2)n1)N1CCCc2ccccc21
i | O=C(c1ccc(Cn2c(=O)[nH]c3ccccc3c2=O)cc1)N1CCN(c2cccc(Cl)c2)CC1
i | Cc1ccc(-c2noc(-c3cccn(CC(=O)Nc4ccc(F)cc4)c3=O)n2)cc1
i | COc1cccc(N2CCN(C(=O)c3ccc4c(=O)n(-c5ccccc5)c(=O)[nH]c4c3)CC2)c1
i | Cc1cc(=O)[nH]c(-n2ncc(C(=O)N3CCN(c4ccccc4)CC3)c2C)n1
i | COc1nn(C)cc1C(=O)Nc1ccc(-n2nnn(C)c2=O)cc1
i | Cc1cc(NC(=O)C(=O)NCC2CCN(C3CCCC3)CC2)no1
i | COc1cc(OC)cc(-c2nnc(NC(=O)c3ccc(OC)c(OC)c3)o2)c1
i | Cc1ccc(Sc2ccc3nn(CC(=O)NCCC4=CCCCC4)c(=O)n3n2)cc1
i | CCn1c(SCC(=O)Nc2ccc(NC(C)=O)cc2)nc2c(-c3ccccc3)c[nH]c2c1=O
i | O=C(CSc1nc(CC(=O)Nc2nc3c(s2)CCCC3)cs1)Nc1ccc(F)cc1
i | COc1ccc(S(=O)(=O)Nc2cccc(C(=O)Nc3sc4c(c3C(N)=O)CCC(C)C4)c2)cc1 (centres undefined)
i | CNC(=O)NC(=O)CN1CCC(Cn2cnc3cc(C)c(C)cc32)CC1
i | Cc1ccccc1Cn1c(C)c(C)n2c3c(=O)n(C)c(=O)n(C)c3nc12
i | O=C(NCC1CCN(C(=O)Nc2ccc(F)cc2)CC1)C(=O)Nc1cccc(N2CCCCC2=O)c1
i | O=C(Nc1cc(N2CCCC2)ncn1)c1cc(Cl)ccc1Cl
i | O=C(c1cccc2ccccc12)N1CCC2(CC1)OCCS2
i | Cc1ccc(-c2ccc3nnc(CCC(=O)NC4CCC(C)CC4)n3n2)cc1C (centres undefined)
i | COC(=O)c1ccc(C(=O)NCCc2ccoc2)cc1
i | COc1ccc(-c2cc3c(SCC(=O)Nc4nccs4)nccn3n2)cc1
i | O=C(NCC1COC2(CCCC2)O1)C(=O)Nc1ccccc1F (centres undefined)
i | Cc1cc(NC(=O)CN(C)c2nc3c(F)cccc3s2)no1
i | O=C(NCCC1=CCCCC1)c1cc(OCc2ccccc2)no1
i | COCCn1c(=O)c2c(nc3n2CC(C)CN3c2cc(C)ccc2OC)n(C)c1=O (centres undefined)
i | Cc1ccc(C(=O)NC2CCN(C(=O)c3cn(-c4ccc(Cl)cc4)nn3)CC2)cc1C
i | COC(=O)c1c(O)ccc2c1CCCC2
i | Cc1c(O)cccc1C(=O)N[C@@H](CSc1ccccc1)[C@H](O)CN1C[C@H]2CCCC[C@H]2C[C@H]1C(=O)NC(C)(C)C
i | COC(=O)c1ccc(Oc2coc3cc(OC(=O)c4cccs4)ccc3c2=O)cc1
i | O=C(c1cccs1)c1ccc(CNS(=O)(=O)c2ccc(F)c(Cl)c2)s1
i | CCOC(=O)c1cnn2ccc(NC(=O)C(C)(C)Oc3ccc(Cl)cc3)cc12
i | O=C(NCc1ccccc1)C1CCN(c2cc(Oc3ccccc3)ncn2)CC1
i | C=C(NC(=O)c1ccc2c(n1)-c1coc(n1)C(=C)NC(=O)C(=C)NC(=O)c1nc(oc1C)C(=C)NC(=O)C(C(C)(C)O)NC(=O)C(=C)NC(=O)c1nc(oc1C)/C(=C/C)NC(=O)C(C(C)O)NC(=O)c1csc-2n1)C(N)=O (centres undefined)
i | O=C(Cc1cccs1)Nc1ccc(S(=O)(=O)N2CCN(c3cnccn3)CC2)cc1
i | Cc1nc(-c2cccs2)sc1CNC(=O)c1ccc(Cn2ccnc2)cc1
i | OCCN1C[C@H](O)[C@@H](O)[C@H](O)[C@H]1CO
i | COc1ccc(OC)c(NC(=O)CSc2cc(-c3nc(C)no3)ccn2)c1
i | COc1cccc(COc2coc(C(=O)NCc3ccc(S(N)(=O)=O)cc3)cc2=O)c1
i | O=C(Cn1nc2c(c1NC(=O)c1ccccc1F)CSC2)NCc1ccco1
i | CC1=C(C(=O)Nc2ccc(C)c(C)c2)C(c2ccc(F)cc2)NC(=S)N1 (centres undefined)
i | COC(=O)c1ccc(CN2CCN(Cc3nc4ccccc4[nH]3)CC2)cc1
i | O=C(NCC1CCN(S(=O)(=O)C2CC2)CC1)C1CC=CCC1 (centres undefined)
i | O=C(Nc1sc2c(c1C(=O)NCC1CCCO1)CCC2)c1cc(-c2ccccc2)on1 (centres undefined)
i | O=C(COc1ccccc1C(=O)O)Nc1ccc(SC(F)F)cc1
i | Cc1nsc(C(=O)N2CCN(C(=O)C3CCCO3)CC2)n1 (centres undefined)
i | Cc1noc(C2(NS(=O)(=O)c3ccc(C#N)cc3)CCCCC2)n1
i | O=C(NCc1ccc2c(c1)OCO2)C(=O)NCC(O)(c1ccccc1)C1CC1 (centres undefined)
i | NC(=O)CSc1nnc(N2CCN(C(=O)Cc3ccc(F)cc3)CC2)s1
i | COc1ccc(N2CC(c3nc(-c4ccc(Br)cc4)no3)CC2=O)cc1OC (centres undefined)
i | COc1ccc(-n2nncc2CN2CCN(C(=O)C3(c4ccccc4)CC3)CC2)cc1F
i | O=C(NCCn1nc(-n2ccnc2)ccc1=O)c1cc(-c2ccccc2)on1
i | CSc1nnc(-c2ccc(S(=O)(=O)N3CCCCCC3)cc2)o1
i | COc1ccccc1-c1ccc(N2CCC(NC(=O)c3n[nH]c4c3CCCC4)CC2)nn1
i | Cc1cc(NC(=O)Cn2c(=O)oc3ccccc32)sn1
i | CC(=O)Nc1ccc(S(=O)(=O)NCC(C)(O)CCc2ccccc2)cc1 (centres undefined)
i | COCCNC(=O)CC1Nc2cc(C)c(C)cc2NC1=O (centres undefined)

Filtered by structure, those above with a thiophene ring, fused or not
GIRK2 activ | structure
i | COc1ccc(NC(=O)CSc2nc3sc(C)cc3c(=O)n2C)c(OC)c1
i | O=C(c1ccsc1)N1CCC(Oc2cnccn2)CC1
i | Cc1cc(C)n(-c2nc(CCNC(=O)c3ccsc3)cs2)n1
i | COc1ccc(OC)c(-c2cc(C(=O)NCc3sc(-c4cccs4)nc3C)[nH]n2)c1
i | CC(C(=O)NCc1cccs1)n1cccc(-c2nc(-c3cnccn3)no2)c1=O (centres undefined)
i | O=C(NCCc1ccsc1)C(=O)NCC(F)(F)F
i | CCCCNC(=O)c1sccc1N(C)S(=O)(=O)c1ccc(C)c(Cl)c1
i | COc1ccc(-c2csc3c(=O)n(Cc4ccc(Br)cc4)cnc23)cc1
i | COc1ccc(S(=O)(=O)Nc2cccc(C(=O)Nc3sc4c(c3C(N)=O)CCC(C)C4)c2)cc1 (centres undefined)
i | COC(=O)c1ccc(Oc2coc3cc(OC(=O)c4cccs4)ccc3c2=O)cc1
i | O=C(c1cccs1)c1ccc(CNS(=O)(=O)c2ccc(F)c(Cl)c2)s1
i | O=C(Cc1cccs1)Nc1ccc(S(=O)(=O)N2CCN(c3cnccn3)CC2)cc1
i | Cc1nc(-c2cccs2)sc1CNC(=O)c1ccc(Cn2ccnc2)cc1
i | O=C(Nc1sc2c(c1C(=O)NCC1CCCO1)CCC2)c1cc(-c2ccccc2)on1 (centres undefined)

The list goes on.
GIRK2 activ | structure
i | COc1cccc(NC(=O)Cn2nc(-c3ccc(F)cc3)c3sc(N4CCCC4)nc3c2=O)c1
i | CN(C)S(=O)(=O)c1ccc(C(=O)NCc2cc(-c3ccncc3)n(C)n2)cc1
i | O=C(c1ccc(F)c(F)c1)N1CCC(CSC2=NCCS2)CC1
i | O=C(C1=C(O)C(=O)N(CCN2CCOCC2)C1c1cccs1)c1cc2ccccc2o1 (centres undefined)
i | COc1ccc(-n2cc(C(=O)OCc3cc(=O)n4ccccc4n3)c3ccccc3c2=O)cc1
i | COc1cccc(C(=O)OC2CN(c3nc4c(C(F)(F)F)cccc4s3)C2)c1OC
i | CS(=O)(=O)N1CCN(CCNC(=O)c2ccc[nH]c2=O)CC1
i | O=C(CN1CCC(c2nc(-c3ccc(F)cc3)no2)CC1)Nc1ccccc1
i | Cc1ccc(S(=O)(=O)NCCn2nc(-c3ccc(Cl)cc3)ccc2=O)cc1C
i | COc1ccc(F)cc1S(=O)(=O)NCCN1CCOCC1
i | Cc1ccc(-n2c(C)cn3c4c(=O)n(CCN5CCOCC5)c(=O)n(C)c4nc23)cc1Cl
i | O=C(NCCn1ncccc1=O)c1cnn(-c2ccccc2)n1
i | O=C(Nc1nn[nH]n1)c1cccc(S(=O)(=O)N2CCCCCC2)c1
i | CCn1c(SCC(=O)Nc2c(C)cc(C)cc2C)nc2cc(-c3ccccc3)sc2c1=O
i | Cc1cc(C)c(S(=O)(=O)Nc2cnc(N3CCCC3)nc2)cc1C
i | COc1ccccc1CNC(=O)Cn1cccc(-c2nc(-c3ccc(Cl)cc3)no2)c1=O
i | C#CCCNS(=O)(=O)CCC
i | O=C(Cn1nc2c(-c3nc(-c4ccccc4)no3)cccn2c1=O)NC1CCCCC1
i | CN(c1ccc(Cl)cc1)S(=O)(=O)c1ccsc1C(=O)NC1CC1
i | O=C(Cn1cnc2c([nH]c3ccccc32)c1=O)NC1CCN(Cc2ccccc2)CC1
i | CCCS(=O)(=O)N1CCN(c2cccc(Cl)c2)CC1
i | CC(NS(=O)(=O)c1cccc(Cl)c1)C(=O)Nc1ccccc1F (centres undefined)
i | Cc1cc2c(SCC(N)=O)ncnc2s1
i | CNC(=O)c1c(NC(=O)C2=COCCO2)sc2c1CCC(C)C2 (centres undefined)

Screening data deposited in PubChem BioAssay by Vanderbilt University.
